# Vaccinia mCherry – qHTS for Stage-Specific Inhibitors of Vaccinia Orthopoxvirus: mCherry Reporter Primary qHTS; Vaccinia virus mCherry reporter infection, fluorescence; about a quarter of the inactives have no number; Potency, µM (doses to about 36.5 µM), for the others: top-dose activity change, negative = inhibition, actives largely listed as inhibitors; 0.63% of 310,000 active; AID 720579, 2013; active = well fitted inhibition curve with a large enough effect; inconclusive = small, poorly fitted or top-dose-only effect; inactive = no such curve, though single readings can be large or run the other way; tested in A549 cells; note: nearly all actives have a fitted effect of over 35% in size; inactives centre near -10
# VACV Venus inh – qHTS for Stage-Specific Inhibitors of Vaccinia Orthopoxvirus: Venus Reporter Primary qHTS. Potency, µM (top dose mostly 36.5 µM), without a hit: at the top dose activity change, negative = inhibition, actives largely listed as inhibitors. 0.46% of 330,000 active. Vaccinia virus Venus reporter expression, fluorescence. AID 720580, 2013; active means well fitted inhibition curve with a large enough effect; inconclusive means small, poorly fitted or top-dose-only effect; inactive means no such curve, though single readings can be large or run the other way; tested in A549 cells; note: nearly all actives have a fitted effect of over 30% in size; inactives centre near -10
# The depositor's hits bear a star; i = inactive; u = inconclusive; x = not tested or not shown; & = joins results of further samples. % is set by controls: 0 for no effect and ±100 for the full control effect; potency is the fitted concentration of half-maximal effect.
Structure,Vaccinia mCherry,VACV Venus inh
Cc1cc(C(=O)Nc2sc(C)c(-c3ccc(F)cc3)c2C(N)=O)no1,x,8%
CCC(C)NS(=O)(=O)c1ccc(NC(=O)c2cccs2)cc1 (stereo not drawn),-1%,-4%
CNC(=O)Nc1cccc(-c2ccnc(C)n2)c1,-7%,3%
CC(C)(C)c1cc(CCC(=O)NCc2ccccn2)cc(C(C)(C)C)c1O,i,-12%
CSc1nc(N)n2nc(-c3ccccc3)cc2n1,i,-19%
COc1cccc(C(=O)NCCN2CCN(c3ccc(Cl)cc3)CC2)c1,-5%,-25%
Cc1ccc(SCC(=O)OCC(=O)NC2CCCCCCC2)cc1,-14%,-6%
Cc1ccc(NC(=O)Cn2cc(C(F)(F)F)cc(Cl)c2=O)cc1Cl,4%,1%
COc1cnc(-c2ccccc2)nc1Oc1cccc(C)c1,x,-23%
O=C(c1ccco1)N1CCN(C(=O)c2ccco2)C1=S,i,u
O=c1cccc2n1CC1CC2CN(C(c2cccc(F)c2)c2sc3ncnn3c2O)C1 (stereo not drawn),i,-11%
CCCC/C(=N\NC(=O)c1ccc(Br)o1)c1ccccc1,-15%,-7%
CN(C(=O)COC(=O)c1ccc(S(=O)(=O)N2CCCCCC2)cc1)c1ccccc1,i,-21%
O=C(O)CC1(CC(=O)Nc2ccccc2N2CCOCC2)CCCC1,i,-5%
CO[C@@]12[C@H](COC(N)=O)C3=C(C(=O)C(C)=C(N)C3=O)N1C[C@@H]1N[C@@H]12,u,u
CCN(CC(=O)Nc1c(F)cccc1F)C(=O)c1ccc(S(=O)(=O)NCc2ccco2)cc1,-1%,-16%
COC(=O)c1ccc(C(=O)Nc2ccc3c(c2)C(=O)NC3=O)cc1,-19%,-17%
CCn1cnc2c(=O)oc3ccc(S(=O)(=O)N4CCN(c5cc(C)ccc5C)CC4)cc3c21,-16%,-7%
CC(=NNC(=S)Nc1cccc(Cl)c1)c1ccccn1,2.8µM*,u
CC(O)C(NS(=O)(=O)c1ccc(Cl)cc1)C(=O)OCC(=O)c1c[nH]c2ccccc12 (stereo not drawn),-10%,-22%
O=C(O)CCN1c2ccccc2Sc2ccccc21,-3%,-9%
COCCCNC(=O)c1oc2c(c1C)-c1nn(Cc3cccc(Cl)c3)cc1CC2,u,u
COc1cc(-c2nnc(SCC(=O)NCc3ccccc3Cl)o2)cc(OC)c1OC,-24%,-15%
Cc1cc(NCCCO)n2c(nc3ccccc32)c1C#N,i,5%
CCCCN(C)S(=O)(=O)c1ccc(C(=O)Nc2nnc(CSC)o2)cc1,u,-27%
CCSc1nnc(-c2ccc(S(=O)(=O)N3CCOCC3)cc2)n1C,2%,-4%
Cc1ccc(C(=O)Nc2cccc(NC(=O)CN3CCCCC3)c2)cc1,-17%,-12%
C/C=C/c1ccc(OCCOc2cccc3cccnc23)c(OC)c1,i,-11%
O=C(Nc1ccc(F)c(F)c1)c1cccnc1,x,-19%
Cc1cc(C)c(C)c(OC(=O)c2sc(Cl)nc2C)c1,i,-8%
CS(=O)(=O)n1nc(-c2ccccc2)nc1NCc1ccco1,x,-19%
CCCCOC(=O)c1ccc(NC(=O)CSc2nnnn2C)cc1,-9%,-4%
CCOc1cccc(C2Nc3ccccc3-c3cc(C)nn32)c1O (stereo not drawn),-7%,-12%
COc1ccc(NC(=O)CCCCCN2C(=O)CCC2=O)cc1Cl,-5%,-1%
O=C(Nc1cccc(-c2nnc(-c3ccco3)o2)c1)c1ccccc1,i,-15%
Cc1ccc(CCNC(=O)CN(c2ccc(C(C)C)cc2)S(=O)(=O)c2c(C)nn(C)c2C)cc1,-8%,-9%
Cc1cc(=O)oc2cc(O)cc(O)c12,-27%,27%
COc1cc2[nH]c(C(=O)N3CCC(Cc4ccccc4)CC3)cc2c(OC)c1OC,u,-17%
CC1CC(C)CN(S(=O)(=O)c2ccccc2[N+](=O)[O-])C1 (stereo not drawn),i,-14%
Cc1ccc(OCC(=O)Nc2ccc3c(c2)nc(CCN2CCCC2)n3C)cc1,-4%,-11%
COc1ccccc1C(=O)Nc1ccccc1N1CCCCC1,-5%,-1%
CC(=O)c1ccc(NS(=O)(=O)c2ccc(-c3cnc(C4CC4)o3)cc2)cc1,-23%&-1%,-8%&-7%
CNC(=O)C1=C(C)NC(=S)NC1c1cc2c(cc1OC)CCCC2 (stereo not drawn),-12%,-14%
O=C(Nn1cnnc1)c1ccccc1Cl,-12%,-10%
Cc1ccc(C)c2[nH]c(=O)c(CCNC(=O)CCc3ccccc3)cc12,-1%,-7%
Cn1cc(/C=C(\C#N)C(=O)Nc2ncc(Cc3ccc(Cl)cc3)s2)c2ccccc21,-14%,-25%
O=C(O)c1ccc(CSc2nc3ccc(NC(=O)c4ccccc4C(=O)O)cc3s2)cc1,-9%,4%
Cc1occc(=O)c1O,i,0%&-17%
Cc1ccc(Cc2cnc(N)s2)o1,-6%,-9%
COc1cccc(CN2CCN(Cc3nc(-c4cccc(F)c4F)oc3C)CC2=O)c1,i,4%
Fc1ccccc1CNc1nc(-c2cccnc2)nc2ccccc12,-5%,0%
c1ccc(Cc2nnc(N3CCCCC3)c3ccccc23)cc1,-19%,-13%
COc1cccc(NC(=O)N(C)C[C@@H]2Oc3cc(Br)ccc3S(=O)(=O)N([C@@H](C)CO)C[C@H]2C)c1,-5%,-15%
Cc1cccc(NC(=O)c2cc(S(=O)(=O)N3CCc4ccccc43)ccc2F)c1C,-9%,-8%
Cc1cc(C)cc(NC(=O)c2ncn(-c3ccccc3)n2)c1,-5%,-1%
O=C(NCC1CCCO1)C(c1cccs1)N(Cc1ccccc1)C(=O)c1ccc(-c2ccccc2)[nH]1 (stereo not drawn),-28%,u

# An excerpt of these results, with values under each structure.
# Order of values – Vaccinia mCherry | VACV Venus inh
O=C(Nn1cnnc1)c1ccccc1Cl
 : -12% | -10%
Cc1ccc(C)c2[nH]c(=O)c(CCNC(=O)CCc3ccccc3)cc12
 : -1% | -7%
Cn1cc(/C=C(\C#N)C(=O)Nc2ncc(Cc3ccc(Cl)cc3)s2)c2ccccc21
 : -14% | -25%
O=C(O)c1ccc(CSc2nc3ccc(NC(=O)c4ccccc4C(=O)O)cc3s2)cc1
 : -9% | 4%
Cc1occc(=O)c1O
 : i | 0%&-17%
Cc1ccc(Cc2cnc(N)s2)o1
 : -6% | -9%
COc1cccc(CN2CCN(Cc3nc(-c4cccc(F)c4F)oc3C)CC2=O)c1
 : i | 4%
Fc1ccccc1CNc1nc(-c2cccnc2)nc2ccccc12
 : -5% | 0%
c1ccc(Cc2nnc(N3CCCCC3)c3ccccc23)cc1
 : -19% | -13%
COc1cccc(NC(=O)N(C)C[C@@H]2Oc3cc(Br)ccc3S(=O)(=O)N([C@@H](C)CO)C[C@H]2C)c1
 : -5% | -15%
Cc1cccc(NC(=O)c2cc(S(=O)(=O)N3CCc4ccccc43)ccc2F)c1C
 : -9% | -8%
Cc1cc(C)cc(NC(=O)c2ncn(-c3ccccc3)n2)c1
 : -5% | -1%
O=C(NCC1CCCO1)C(c1cccs1)N(Cc1ccccc1)C(=O)c1ccc(-c2ccccc2)[nH]1 (stereo not drawn)
 : -28% | u

# Going on with the list.
Structure,Vaccinia mCherry,VACV Venus inh
CC(C)(C)NC(=O)CSCc1c(Cl)cccc1Cl,-20%,-16%
COC(=O)CSc1nnc(CNC(=O)c2ccccc2OC)n1C,-13%,-6%
NC(=O)c1ccsc1NC(=O)CCS(=O)(=O)c1ccc(F)cc1,u,u
Cc1ccc(Nc2nc(C)c(CCC(C)C)c(=O)[nH]2)cc1,x,-12%
Cc1cc(CNC(=O)COc2ccccc2)c2ccccc2n1,-10%,-21%
CC(=O)Nc1ccc(C(=O)C(Cc2ccccc2)N(C)C)cc1 (stereo not drawn),-26%,6%
CCNc1nc(Oc2ccc(=O)n(-c3ccccc3)n2)nc(N(C)C)n1,-10%&-10%,-5%&-1%
Cc1csc(=O)n1CCC(=O)OCC(=O)NCc1ccc(Cl)cc1Cl,-3%,-3%
COc1ccc2nc(NNC(=O)C3COc4ccccc4O3)sc2c1 (stereo not drawn),u,-3%
CCOC(=O)c1ccc(NC(=O)c2c(NCc3cccs3)sc3c2CCCCC3)cc1,-5%,7%
CC1CCCN(S(=O)(=O)c2ccc(C(=O)NC(C)c3ccccc3)cc2)C1 (stereo not drawn),-20%,-21%
CCn1c(O)c(/C=N/N=C/c2ccccc2)c2ccc(C3=NNC(=O)CC3)cc21,-24%,-2%
Cn1c(=O)c(=O)n(C)c2cc(S(=O)(=O)CCC(=O)Nc3ccccc3C(F)(F)F)ccc21,i,-18%
COc1ccc(C(C)=O)cc1CSCCC(=O)O,-9%,-9%
COCCCN1C(=O)C2C(C(=O)Nc3cccc(Cl)c3)C3C=CC2(O3)C1C(=O)NC1CCCCC1 (stereo not drawn),-8%,3%
O=C(CCOc1ccccc1)OCC(=O)c1cc2ccccc2o1,x,-2%
C=CCN(CC=C)S(=O)(=O)c1ccc2nc(NC(=O)C(C)C)sc2c1,x,u
O=C(CCCN1C(=O)c2ccccc2C1=O)NCCCN1CCOCC1,-18%,-16%
CCOC(=O)c1c(NC(=O)COc2ccccc2Br)sc2c1CCCCC2,-7%,-3%
CCOC(=O)C1CCN(S(=O)(=O)c2cccc3nonc23)CC1,-8%,-3%
CCOc1ccc(CCNC(=O)C2CCN(S(=O)(=O)c3ccc(C)cc3)CC2)cc1OCC,0%,-20%
COc1ccc(-c2c(C)nn3c(C(F)(F)F)cc(-c4ccc(Br)cc4)nc23)cc1,-2%,-5%
COc1ccc2c(c1)O/C(=C\c1sccc1C)C2=O,-10%,1%
CCOC(=O)c1c(NC(=S)Nc2ccc(Cl)cc2)sc2c1CCN(C)C2,-20%,10%
Cc1ccnc(NC(=O)c2cccc(NC(=O)COc3ccccc3)c2)c1,-26%,-4%
C/C(Cl)=C\CSc1nnc2n(N)c(=O)c3ccccc3n12,i,-24%
CCOC(=O)Cc1csc(NC(=O)CSc2nnc(C3CC3)n2C)n1,-11%,-9%
CN(CCc1ccccc1)C(=O)c1cccc(NC(=O)Cc2cccc(NC(=O)C3CCCN(C(=O)C4CCCC4)C3)c2)c1 (stereo not drawn),u,-1%
COc1ccc2c(c1)C(C)=CC(C)(C)N2S(=O)(=O)c1ccc(NC(C)=O)cc1,-15%,u
CCN(CC)S(=O)(=O)c1ccc(C(=O)N(c2ccccc2)C2C=CS(=O)(=O)C2)cc1 (stereo not drawn),-3%,-14%
NC(=O)C1CCN(S(=O)(=O)c2ccc(N3CCCCS3(=O)=O)cc2)CC1,i,-9%
O=C(CSc1nnc(NC(=O)c2c(F)cccc2Cl)s1)Nc1ccccc1F,-10%,0%
COc1ccc(CNC(=O)CCNS(=O)(=O)c2ccc3c(c2)CCCC(=O)N3)cc1,-4%,-2%
CCOC(=O)C1CCCN(S(=O)(=O)c2ccc3[nH]c(=O)ccc3c2)C1 (stereo not drawn),-6%,u
COCCCNCCCCOc1ccc(Br)cc1C,-29%,-21%
CC(OC(=O)Cn1c(C(F)(F)F)nc2ccccc21)C(=O)N1CCCc2ccccc21 (stereo not drawn),x,-8%
CCCCNC1C(CC)C(CCC)C(C#N)(C#N)C1(C#N)C#N (stereo not drawn),x,-26%
CCN1C(=O)[C@@H]2[C@@H](c3ccc(-c4ccc5c(c4)OCO5)cc3)N3CCCC[C@@]3(C(=O)OC)[C@@H]2C1=O,-22%,-23%
CCn1c(CNc2ccc(F)cc2)nnc1SCC(=O)Nc1ccc(OC)cc1,-25%,-12%
CN1C(=O)c2ccccc2Sc2ccc(NC(=O)N3CCN(c4cccc(Cl)c4)CC3)cc21,-29%,-26%
COc1ccc(C(=O)NNS(=O)(=O)c2ccccc2)cc1,-7%,-7%
O=C(OCc1nnc(-c2ccccc2)o1)c1ccco1,-15%,-6%
Cc1ccc(S(=O)(=O)Oc2ccc(/C=C(/NC(=O)c3ccccc3)C(=O)NCCC(=O)O)cc2)cc1,i,4%
Cc1nc(CC(=O)NNS(=O)(=O)c2ccc3ccccc3c2)cs1,i,-6%
COc1cc(/C=N/NC(=S)Nc2cccc(C(=O)O)c2)cc(OC)c1OC,-10%,-10%
Cn1c(C(C#N)C(=O)c2sc3ccccc3c2Cl)nc2ccccc21 (stereo not drawn),-5%,-11%
C[C@@H](NC(=O)c1nc[nH]c1C(=O)NC1CCN(C(=O)OC(C)(C)C)CC1)c1ccccc1,-27%,-23%
COc1ccc(C(O)c2nc(-c3cccc(NC(C)=O)c3)cs2)cc1 (stereo not drawn),-14%,u
COCCNC(=O)COc1coc(CN2CCN(Cc3ccccc3)CC2)cc1=O,i,-4%
Cc1ccc2c(c1)/C(=C/c1ccccc1F)C(=O)N2,-14%,-29%
CCC(C)NC(=O)Cn1c(=O)n(-c2cc(OC)cc(OC)c2)c(=O)c2ccccc21 (stereo not drawn),-12%,-1%
Cc1c(O)cc2c(c1O)C(=O)CC(c1ccccc1)O2 (stereo not drawn),-20%,-24%
